# SARS PLpro yeast = qHTS of Yeast-based Assay for SARS-CoV PLP | AID 485353, 2010 | Potency, µM (top dose mostly 32.9 µM), inactives show top-dose activity, positive = growth rescue | S. cerevisiae expressing SARS-CoV PLpro, growth rescue; control for the full effect not named in the record | actives 0.19% (n = 330,000); active means well fitted rising curve with a large enough effect; inconclusive means small, poorly fitted or top-dose-only effect; inactive means no such curve, though single readings can be large or run the other way; also: 0% is about no effect; nearly all actives have a fitted effect of over 55% in size; growth read by luminescence after 48 h
# Cruzain inh Det = qHTS Assay for Promiscuous and Specific Inhibitors of Cruzain (with detergent); purified cruzain, Z-FR-AMC fluorescence, 0.01% Triton; Potency, µM, without a hit: max response, negative = inhibition, most hits filed as inhibitors; actives 0.43% (n = 200,000); AID 1478, 2009;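 also: plate controls were neutral wells for no effect and buffer without enzyme for full effect; nearly all actives have a fitted effect of over 40% in size; top concentration of the series not given in the record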
# Target sequence (P25779 123-467 limits assumed): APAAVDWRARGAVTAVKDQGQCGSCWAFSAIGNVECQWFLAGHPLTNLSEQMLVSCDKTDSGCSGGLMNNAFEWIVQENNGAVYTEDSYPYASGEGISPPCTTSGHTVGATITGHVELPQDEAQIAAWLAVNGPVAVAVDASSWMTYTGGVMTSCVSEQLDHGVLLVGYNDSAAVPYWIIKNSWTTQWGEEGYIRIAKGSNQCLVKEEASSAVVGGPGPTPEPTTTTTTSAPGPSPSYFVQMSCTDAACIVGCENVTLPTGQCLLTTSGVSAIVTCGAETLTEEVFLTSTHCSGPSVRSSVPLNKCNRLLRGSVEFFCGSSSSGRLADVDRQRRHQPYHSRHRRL
#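 Enzyme 1.5 nM, Z-FR-AMC 2 uM, NaOAc 100 mM pH 5.5, DTT 5 mM, Triton X-100 0.01%; 15 min RT compound preincubation; kinetic ex360/em450, 60 s delta.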
# LASV entry inh = qHTS for Inhibitors of binding or entry into cells for Lassa Virus. AID 540256, 2011. Lassa virus pseudotype entry inhibition, cell reporter; control for the full effect not named in the record. Potency, µM (doses to about 37.9 µM), for the others: at the top dose activity change, negative = inhibition, actives largely listed as inhibitors. actives 1.2% (n = 300,000); active means well fitted inhibition curve with a large enough effect; inconclusive means small, poorly fitted or top-dose-only effect, or effect the other way; inactive means flat fitted curve, though single readings scatter; tested in HEK293 cells; also: % is scaled to controls: 0 for no effect and ±100 for the full control effect; nearly all actives have a fitted effect of over 50% in size; luciferase read-out
# StopGo reporter = High Throughput Screening for Foot and Mouth Disease Virus Antivirals | human cells with a luciferase reporter of 2A StopGo recoding; control for the full effect not named in the record | Potency, µM (doses to about 57.9 µM), for inactives: top-dose signal change, negative = less light | actives 1.2% (n = 410,000); active = well fitted falling curve with a large enough effect; inconclusive = small, poorly fitted or top-dose-only effect; inactive = no such curve, though single readings can be large or run the other way; tested in HEK293T cells; also: % is scaled to controls: 0 for no effect and ±100 for the full control effect; nearly all actives have a fitted effect of over 45% in size; luciferase light after 4 h
# NS1 function inh = qHTS Assay for Inhibitors of Influenza NS1 Protein Function; S. cerevisiae slowed by influenza A NS1, growth recovery by OD600; Potency, µM (titrated, usually from 46.1 µM), for the others: at the top dose activity, positive = more growth; actives 0.4% (n = 270,000); AID 2326, 2010; active means well fitted rising curve with a large enough effect; inconclusive means small, poorly fitted or top-dose-only effect; inactive means no such curve, though single readings can be large or run the other way; also: nearly all actives have a fitted effect of over 50% in size
#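 OD600 was taken as the measure of yeast growth restored by compound in an NS1-expressing S. cerevisiae strain. Cells had been washed out of glucose medium and diluted 1:100 into galactose -URA medium, pH 6.0.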
# RE007 growth inh = qHTS Assay for Inhibitors of the HIV-1 protein Vpr. S. pombe RE007 Vpr strain, BacTiter-Glo ATP luminescence, 24 h; control for the full effect not named in the record. Potency, µM (doses to about 92.2 µM), without a hit: at the top dose activity change, negative = less growth. actives 0.21% (n = 360,000). AID 651644, 2012; active = well fitted falling curve with a large enough effect; inconclusive = small, poorly fitted or top-dose-only effect; inactive = no such curve, though single readings can be large or run the other way;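 also: % is scaled to controls: 0 for no effect and ±100 for the full control effect; nearly all actives have a fitted effect of over 50% in size; the assay follows cell death caused by Vpr and the record does not say whether a fall means rescue or toxicity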
#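 Fission yeast RE007 carrying one integrated HIV-1 vpr copy, seeded at OD 0.01 in PMG+AL medium with 23 nL pinned compound. Grown 24 h at 30 degrees; viability read by BacTiter-Glo luminescence after 5 min.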
# Cruzain inh noDet = qHTS Assay for Promiscuous and Specific Inhibitors of Cruzain (without detergent); AID 1476, 2009; actives 2.3% (n = 200,000); purified cruzain, Z-FR-AMC fluorescence, no detergent; Potency, µM, for the others: max response, negative = inhibition, usual class: inhibitors; Cruzipain (Trypanosoma cruzi), P25779;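 also: plate controls were enzyme without inhibitor for no effect and buffer without enzyme for full effect; nearly all actives have a fitted effect of over 40% in size; top concentration of the series not given in the record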
#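 Detergent-free condition (0.00005% Triton X-100) in acetate buffer pH 5.5 with DTT. 1.5 nM enzyme and compound were pre-mixed 15 min, then 2 uM Z-FR-AMC substrate added; reaction progress from fluorescence change between first and third reads (60 s).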
# Marburg entry inh = qHTS for inhibitors of binding or entry into cells for Marburg Virus; Marburg virus pseudotyped entry inhibition, cell reporter; control for the full effect not named in the record; about a third of the inactives were read at about 46 µM; Potency, µM (series often up to 37.8 µM), inactives show at the top dose activity change, negative = inhibition, usual class: inhibitors; AID 540276, 2011; actives 1.8% (n = 300,000); active = well fitted inhibition curve with a large enough effect; inconclusive = small, poorly fitted or top-dose-only effect, or effect the other way; inactive = flat fitted curve, though single readings scatter; tested in HEK293 cells; about a fifth of its hits are not listed in these tables; also: % is scaled to controls: 0 for no effect and ±100 for the full control effect; luciferase read-out
# Starred values were filed as active, the others as inactive; ? = inconclusive; . = not tested or not shown; & = joins results of further samples; ! = not confirmed by another sample; [ ] = another dose, or the depositor's remark. Unless noted, calls follow the shape of the dose curve; as a rule, active = well fitted curve in the direction sought with a large enough effect; inconclusive = small, poorly fitted or top-dose-only effect, or another doubt; inactive = no such curve, though single readings can be large; an effect the other way counts as inactive or inconclusive. Potency is read from the fitted curve at half-maximal effect.
SMILES,SARS PLpro yeast,Cruzain inh Det,LASV entry inh,StopGo reporter,NS1 function inh,RE007 growth inh,Cruzain inh noDet,Marburg entry inh
Cc1cc([N+](=O)[O-])nn1CCC(=O)NC1CCCCCC1,17%,-1.5%,17%,-15%,16%,-13%,-3%,-24%
CCc1ccc(N2CC(C(=O)OC)CC2=O)cc1 (centres undefined),-1%,.,7%,7%,2%,-2%,.,?
O=C(OCCC1Oc2cccnc2NC1=O)c1ccc(Cl)cc1 (centres undefined),0%,.,9%,-26%,2%,8%,.,-4%[46.1 µM]
CN1OCC2Cn3c(nc4ccccc43)C21 (centres undefined),2%,.,.,15%,-2%,-5%,.,.
CCc1ccc(OCC(=O)O/N=C(\N)c2cccnc2)cc1,-5%,.,19%,20%,-2%,-4%,.,0%
O=C1NC(c2ccncc2)Nc2sc3c(c21)CCCC3 (centres undefined),3%,-11%,-1%,23%,-31%,?,-18%,17%
Cc1cnc(C)c(N2CCN(Cc3cn(C)nc3-c3cccc(Cl)c3)CC2)n1,-2%,.,.,?,-2%,-2%,.,.
CCOC(=O)C1=C(C)N(c2ccccc2)C(=O)/C1=C\c1ccc(O)c(OC)c1,1%,.,.,?,2.5µM*,-9%,.,.
CSCCCNC(=S)Nc1ccc(N2CCOCC2)cc1N1CCOCC1,-1%,.,18%[46.1 µM],0%,.,5%,.,20%[46.1 µM]
CS(=O)(=O)N(CC(=O)O)Cc1cccc(CN(CC(=O)O)S(C)(=O)=O)c1,5%,.,.,-22%,-20%,4%,.,.
COc1cc(CNCc2c(C(=O)O)c(C)n(Cc3cccc(Cl)c3)c2C)cc(OC)c1OC,.,-1.4%,-9%[46.1 µM],14%,.,.,3%,-19%[46.1 µM]
O=C(Nc1ccccc1N1CCOCC1)c1cccc(Oc2ccccc2)c1,0%,.,?,-3%,7%,0%,.,-14%[46.1 µM]
Cc1ccc(/C=C/C(=O)N2CCCN(C(=O)/C=C/c3ccc(C)cc3)CC2)cc1,14%,-5.4%,0%,31%[activator],-6%,8%,6%,?
CCN(CC)CCn1c(NC(=O)c2ccc(Cl)cc2)nc2ccccc21,-10%,3.9%,?,.,3%,-9%,3%,?
Cc1ccc(Nc2nc3c(c(=O)[nH]2)CCCC3)cc1,?,-3.8%,-1%,32%[activator],4%,-3%,7%,2%
O=C(c1ccc(Cl)cc1)c1ccccc1C(=O)N1CCOCC1,-1%,1.0%,2%,.,-4%,-11%,-8%,4%
CC(=O)c1ccc(OCCCC(=O)NC2=NCCS2)cc1,3%,4.2%,-2%,0%,9%,-2%,0%,1%
CCOC(=O)c1ccccc1Nc1cc(C)nc2nc(C)nn12,-43%,-5.6%,.,-10%,-21%,8%,2%,.
Clc1ccccc1CONc1ncnc2nonc12,7%,-7.9%,12%,-8%,-19%,-1%,-6%,-37%
CCCn1c(SCC(=O)Nc2nc3c(s2)CCCC3)nc2c1c(=O)n(C)c(=O)n2C,1%,-2.6%,1%,1%,-16%,6%[3.69 µM],?,8%
Cc1cc(C)cc(OCC(=O)N(Cc2ccco2)Cc2ccccc2Cl)c1,.,-12%,-1%[46.1 µM],-23%,.,.,?,?
C#CCOC(=O)C[N+](C)(C)CC=C,0%,.,-7%,-14%,0%,10%,.,-1%[46.1 µM]
CC(Oc1ccccc1)C(=O)Nc1cccc(-c2cn3cccnc3n2)c1 (centres undefined),.,-22%,-25%[46.1 µM],-10%,.,.,8%,.
COc1ccc(CN2CCNC(=O)C2CC(=O)NC2CCCCCC2)cc1C (centres undefined),?,.,.,-8%,2%,-1%,.,.
O=C(COc1ccc2ccccc2c1)N1CCN(C2CCN(Cc3ccccc3)CC2)CC1,2%,-6.8%,-27%,-28%,12%,0%,11%,?
# Continued.
SMILES,SARS PLpro yeast,Cruzain inh Det,LASV entry inh,StopGo reporter,NS1 function inh,RE007 growth inh,Cruzain inh noDet,Marburg entry inh
Cc1ccccc1NC(=O)NC1CCCc2ccccc21 (centres undefined),2%,.,.,-5%,11%,11%,.,.
O=C(Cc1cccs1)N1CCN=C1SCc1ccccc1F,2%,.,3%,7%,.,-6%,.,3%
O=c1c2sc(-c3ccccc3)cc2nc2n1CCC2,-60%,-5.3%,?,-48%,-50%,?,3%,4.5µM*
Cc1nn(-c2ccc(F)cc2)c2sc(C(=O)N3CCCCCC3)cc12,3%,-5.0%,-26%,45%[activator],-40%,-8%,?,-20%
CCCSC1=C(C#N)C2(CCCCC2)C(C#N)=C(N)N1,0%,.,.,?,6%,1%,.,-16%[46.1 µM]
N=c1sccn1CC(=O)Nc1cccc(S(N)(=O)=O)c1,0%,.,.,-11%,3%,3%,.,.
C=CCNc1scc(-c2ccccc2)[n+]1CC=C,-3%,.,4%[46.1 µM],-10%,3%,-8%,.,-24%[46.1 µM]
C#CCOCCOCCOCCNc1nc(N2CCN(C(=O)[C@H]([C@@H](C)CC)n3cc([C@@H](N)CC(C)C)nn3)CC2)nc(N2CCN(C(=O)[C@H](Cc3ccc(O)cc3)n3cc([C@@H](N)C(C)CC)nn3)CC2)n1 (some centres undefined),-1%,.,.,-1%,0%,15%,.,.
COc1ccccc1CNC(=O)[C@H](C)NC(=O)[C@@H]1Cc2ccccc2CN1,0%,.,13%[46.1 µM],10%,-12%,-1%,.,18%[46.1 µM]
Clc1cccc(-c2ccc(/C=N/n3cnnc3)o2)c1Cl,-48%,-6.5%,7%,-4%,-4%,-26%,-25%,8%
O=C(Nc1c(C(=O)N2CCN(c3ccc(F)cc3)CC2)oc2ccccc12)c1ccco1,.,-7.5%,?,21%,.,.,-13%,.
COc1cccc(NC(=O)CN(C)C(=O)C(C)Sc2ccccc2)c1 (centres undefined),0%,.,-6%,-10%,.,-19%,.,16%
O=C(CC12CC3CC(CC(C3)C1)C2)NCC(=O)N1CCc2ccccc2C1,9%,-4.6%,-3%,-9%,-7%,9%,0%,10%
O=C(NCCc1ccccc1)C1CCCN(c2cnccn2)C1 (centres undefined),4%,.,.,8%,15%,0%,.,.
CC1CCN(S(=O)(=O)c2ccc3c(c2)oc(=O)n3CC(=O)N2CCCCC2)CC1,.,-1.6%,-11%[46.1 µM],-3%,.,.,-8%,4%[46.1 µM]
Cc1ccnc(NC(=O)CCC(=O)N(CC(=O)NCc2ccccc2)Cc2ccc(F)cc2)c1,-2%,.,16%[46.1 µM],-3%,-8%,-9%,.,-13%[46.1 µM]
COc1ccc(S(=O)(=O)N2CCC(C(=O)Nc3nnc(C)s3)CC2)cc1OC,1%,.,0%,-15%,.,6%,.,-9%
O=C(c1cc2c(s1)CCCC2)N1CCN(S(=O)(=O)c2ccccc2C(F)(F)F)CC1,21%,-4.9%,?,-17%,-8%,11%,17%,-23%
Fc1ccc(-c2csc3ncnc(N4CCN(c5ccccc5)CC4)c23)cc1,-5%,.,?,-29%,-17%,8%,.,?
Cc1cc(NC(=O)CSc2nnc(-c3ccc(Br)o3)n2Cc2ccccc2)no1,10%,-9.7%,-2%,-22%,-4%,10%,1%,9%
COc1ccc(Cl)cc1NC(=O)c1nnn(Cc2cccc(C(F)(F)F)c2)c1N,.,1.8%,-4%[46.1 µM],?,.,.,23%,?
COc1ccc(C(=O)OCC(=O)NCC2CCCCC2)cc1F,3%,.,0%[46.1 µM],45%[activator],.,0%,.,?
O=C(c1sc2cc(Cl)ccc2c1Cl)N1CCN(CCc2ccccn2)CC1,-4%,.,.,-19%,-14%,-5%,.,.
NNC(=O)c1sccc1OCc1ccc(F)cc1,-7%,.,3%,-9%,.,-3%,.,26%[46.1 µM]
Clc1cnc(Oc2ccc(Oc3ncc(Cl)cc3Cl)cc2)c(Cl)c1,2%,4.6%&7.3%,?,-10%,-1%&0%,-4%,?,1µM*!
# (continued)
SMILES,SARS PLpro yeast,Cruzain inh Det,LASV entry inh,StopGo reporter,NS1 function inh,RE007 growth inh,Cruzain inh noDet,Marburg entry inh
COc1ccc(CNC(=O)c2ccc(=O)oc2)cc1OC,4%,-7.4%,1%,11%,8%,3%,-11%,-9%
O=C1CC(c2ccc(F)c(Br)c2)C2=C(CCCC2=O)N1 (centres undefined),4%,0.9%,22%,?,-2%,0%,-16%,-2%
CCC(=O)c1ccc(OC(=O)N2CCOCC2)cc1,-3%,.,.,0%,19%,-1%,.,.
Cc1cccc(C)c1OCC(=O)N(Cc1ccco1)C1CCS(=O)(=O)C1 (centres undefined),-3%,.,.,-1%,18%,-5%,.,.
COc1cc2ncnc(NCc3ccccc3C)c2cc1OC,1%,-12%,-7%,-16%,-2%,-3%,-1%,4%[46.1 µM]
Cc1[nH]n(-c2ccccc2)c(=O)c1C(=O)c1ccc(Cl)cc1,0%,.,?,?,-53%,-11%,.,?
COc1cc(NC(=O)COC(=O)c2ccccc2SCC(=O)N2CCCC2)cc(OC)c1,-3%,.,1%,-7%,.,-11%,.,-7%
Cc1ccc2c(c1)C(O)(C1COC(C)(C)CC1=O)C(=O)N2C (centres undefined),10%,.,-2%[46.1 µM],-7%,5%,-25%,.,-8%[46.1 µM]
Cc1c(Cl)cccc1NC(=O)N1CCCC1,0%,.,19%,-5%,0%,-9%,.,27%[46.1 µM]
CCC1CCC(C(=O)NC(CCSC)C(=O)NCCN(CC(C)C)CC(C)C)CC1 (centres undefined),2%,.,12%[46.1 µM],-9%,.,-12%,.,-4%[46.1 µM]
COc1ccc(CCNC(=O)COC(=O)c2ccccc2NCCO)cc1OC,10%,.,21%,-20%,.,13%,.,21%[46.1 µM]
Cc1cccc(CNC(=O)c2ccc3nc(Cc4ccccc4)oc3c2)c1,.,-2.2%,-7%[46.1 µM],1%,.,.,-7%,.
Cc1ccn2c(Nc3ccc(C(C)C)cc3)c(-c3ccsc3)nc2c1,.,-3.2%,18%[46.1 µM],8%,.,.,11%,?
Nc1nc(Sc2ncccc2[N+](=O)[O-])n[nH]1,1%,.,.,7%,-2%,-9%,.,.
